# Screening results as filed in PubChem.
# NPYLR7 agonist = mosquito NPYLR7 agonism; HEK293T NPYLR7/Galpha15, GCaMP6s calcium fluorescence; activation, % at 10 µM; actives 0.15% (n = 270,000); in the data active = activation above about 40%;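 note: 0% = vehicle and 100% = reference agonist at the receptor; some compounds past the cut are filed as inactive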
# NPYLR7 agonist max-min = recorded beside NPYLR7 agonist, whose call it bears; activation, %; measured here: Max-Min RFU normalised activation; some inactives read as strong as hits;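 span of the calcium signal over five minutes; 0% = vehicle and 100% = native peptide agonist; compound fluorescence can raise it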
# Starred values were filed as active, the others as inactive; & = joins results of further samples. Not all compounds are listed; count on the stated rates, not on these rows.
SMILES,NPYLR7 agonist,NPYLR7 agonist max-min
CCOC(=O)c1cnn(C2CCN(C(C)C(=O)NC3CC3)CC2)c1N (configuration not stated),-2,-3
O=C(CN1CCCCCCC1=O)NCCc1ccccc1F,1,-3
CSc1ccccc1C(=O)N1CCC(C(Cc2ccccc2F)N(C)C(=O)c2cccs2)CC1 (configuration not stated),8,-3
O=C(c1ccccc1C1CCNC1)N1CCOc2ccc(Cl)cc2C1 (configuration not stated),5,3
COc1cc(S(=O)(=O)NCc2ccco2)ccc1I,3,-3
Cc1cc(C)cc(CSc2nnc(N)s2)c1,4,0
Cc1cccc2sc(N(CCCn3ccnc3)C(=O)c3ccco3)nc12,-10,-14
Cc1cc(NC(=O)C(C)n2cc([N+](=O)[O-])cn2)no1 (configuration not stated),1,0
COc1ccc(-n2ncc(Oc3ccc4c(c3)CCC4)c(Nc3cccc(C(=O)NCCN4CCOCC4)c3)c2=O)cc1,13,14
CC(C1CC1)N(C)C(=O)Nc1ccc(Cl)c(Cl)c1 (configuration not stated),0,-1
Cc1nc2c(=O)n(CC(=O)N3CCc4ccccc43)nc(-c3cccs3)c2s1,5,3
CCOC(=O)c1c(C)[nH]c(-c2nc(N3CCN(C)CC3)sc2C)c1C,1&-4,6&-5
O=C1OC(c2ccc(Cl)cc2Cl)=N/C1=C\C(Cl)=C\c1ccccc1,-12,-14
Cc1cc(C)nc(-c2ccc(CO)cc2)n1,13,2
COc1ccc(C(=O)NC2CCCc3c2cnn3-c2ccc(F)cc2F)c(OC)n1 (configuration not stated),-8,-9
CCCC(=O)N1CCC1(C)C(=O)NCc1ccccc1SC (configuration not stated),0,-1
O=C(O)CN1C(=O)C2CCCCC2C1=O (configuration not stated),-7,-9
COc1ccccc1/C=C/C1=NC(=C\c2cccc(F)c2)/C(=O)O1,-3,-8
Cc1cccc(OCC(=O)N2CCOC(Cc3ccccc3)C2)c1C (configuration not stated),21,18
O=C(C=Cc1ccco1)Nc1cccc(S(=O)(=O)N2CCCCC2)c1,4,12
Cc1nn2c(ncc3c(=O)n(-c4ncn[nH]4)ccc32)c1-c1ccc(F)cc1,2,6
CNc1cnc(-c2ccc(OCCCN(C)C)nc2)cn1,1,-1
COc1ccc(CNC(=O)NNC(=O)c2ccc(F)cc2)cn1,12,7
C=CCN(CC(=O)N1CCc2sccc2C1c1ccccc1C)C(=O)c1cccc([N+](=O)[O-])c1 (configuration not stated),4,7
O=C(NC1CCCN(CCc2ccccc2)C1)c1c(F)ccc(F)c1F (configuration not stated),2,0
O=C(C1CCCN(Cc2ccc(-n3cncn3)cc2)C1)N1CCCC1 (configuration not stated),2,1
Clc1ccc(-c2nc(CSc3ccccc3Cl)cs2)cc1,4,0
CN(C)c1nccc(N2CCN(C(=O)CN3CCCOC3=O)CC2)n1,5,5
CC(Cc1cnccn1)NC(=O)c1cccc(-c2cccc(F)c2)c1 (configuration not stated),9,3
Nc1c(-c2ccccc2)nc(Cl)nc1-c1ccccc1,0,-2
CN(Cc1cccc(F)c1)Cc1nc2scc(-c3ccc(F)cc3)c2c(=O)[nH]1,4,2
COc1ccc(NC(=O)C2(c3ccnc(Nc4cccc(O)c4)c3)CC2)cn1,13,28
COc1cc(C(=O)N/N=C(/C)c2cccc(NC(=O)C(C)(C)C)c2)cc(OC)c1OC,12,15
CCN(CC)C(CNC(=O)c1ccc(N2CC(C)OC(C)C2)nc1)c1ccsc1 (configuration not stated),1,0
Cc1ccc(C(O)c2ncc(-c3cccc(C(F)(F)F)c3)[nH]2)cc1 (configuration not stated),0,-3
CC1(C)/C(=C\Br)C2(C(=O)O)CCC1C2 (configuration not stated),-1,-3
Cc1ccc(C(C)Nc2nc(CN3CCOCC3)nc3sc4c(c23)CCC(C)C4)o1 (configuration not stated),-4,-5
O=C(NCCNc1ccc(Nc2cccnc2)nn1)c1cccc2ccccc12,-1,-3
Cc1ccc2[nH]c(O)c(N=Nc3cccc4cccnc34)c2c1,6,5
CN(c1cc(C(F)(F)F)nc(SCc2ccc(C(=O)NCC3CCCO3)o2)n1)C1CCCCC1 (configuration not stated),7,6

# Of the compounds above, 18 contain a halogen:
SMILES,NPYLR7 agonist,NPYLR7 agonist max-min
O=C(CN1CCCCCCC1=O)NCCc1ccccc1F,1,-3
CSc1ccccc1C(=O)N1CCC(C(Cc2ccccc2F)N(C)C(=O)c2cccs2)CC1 (configuration not stated),8,-3
O=C(c1ccccc1C1CCNC1)N1CCOc2ccc(Cl)cc2C1 (configuration not stated),5,3
COc1cc(S(=O)(=O)NCc2ccco2)ccc1I,3,-3
CC(C1CC1)N(C)C(=O)Nc1ccc(Cl)c(Cl)c1 (configuration not stated),0,-1
O=C1OC(c2ccc(Cl)cc2Cl)=N/C1=C\C(Cl)=C\c1ccccc1,-12,-14
COc1ccc(C(=O)NC2CCCc3c2cnn3-c2ccc(F)cc2F)c(OC)n1 (configuration not stated),-8,-9
COc1ccccc1/C=C/C1=NC(=C\c2cccc(F)c2)/C(=O)O1,-3,-8
Cc1nn2c(ncc3c(=O)n(-c4ncn[nH]4)ccc32)c1-c1ccc(F)cc1,2,6
COc1ccc(CNC(=O)NNC(=O)c2ccc(F)cc2)cn1,12,7
O=C(NC1CCCN(CCc2ccccc2)C1)c1c(F)ccc(F)c1F (configuration not stated),2,0
Clc1ccc(-c2nc(CSc3ccccc3Cl)cs2)cc1,4,0
CC(Cc1cnccn1)NC(=O)c1cccc(-c2cccc(F)c2)c1 (configuration not stated),9,3
Nc1c(-c2ccccc2)nc(Cl)nc1-c1ccccc1,0,-2
CN(Cc1cccc(F)c1)Cc1nc2scc(-c3ccc(F)cc3)c2c(=O)[nH]1,4,2
Cc1ccc(C(O)c2ncc(-c3cccc(C(F)(F)F)c3)[nH]2)cc1 (configuration not stated),0,-3
CC1(C)/C(=C\Br)C2(C(=O)O)CCC1C2 (configuration not stated),-1,-3
CN(c1cc(C(F)(F)F)nc(SCc2ccc(C(=O)NCC3CCCO3)o2)n1)C1CCCCC1 (configuration not stated),7,6

# (listing goes on)
SMILES,NPYLR7 agonist,NPYLR7 agonist max-min
O=C(CCN1CCCCO1)NCc1cccnc1Oc1ccccc1F,-1,-4
Cc1c([N+](=O)[O-])c([N+](=O)[O-])nn1CC(=O)N1CCCCC1,2,1
FC(F)(F)C1CN(c2ccnc3ccccc23)CCO1 (configuration not stated),-2,-2
COc1ccc(-c2cc(C(=O)NCCN3CCOCC3)n3nc(C(C)(C)C)cc3n2)cc1,8,4
CN(C)c1nc2ccc(OC(=O)c3ccc([N+](=O)[O-])o3)cc2s1,2,2
Cc1cc(F)ccc1NC(=O)CCC1CCCN(C(=O)c2ccc(=O)n(C)n2)C1 (configuration not stated),5,4
O=C(Cc1ccccc1)N1CC(=O)N(C2Cc3ccccc3C2)CC(O)C1 (configuration not stated),0,2
CCOC(=O)Cc1cc(=O)[nH]c(N=C(N)Nc2ccc(OCC)cc2)n1,10,9
CC(C)(Oc1ccc(F)cc1)C(=O)NC(c1ccccc1)C1CC1 (configuration not stated),1,1
Cc1cc(=O)n2nc(N3CCCC(C(=O)N4CCN(C)CC4)C3)sc2n1 (configuration not stated),7,5
CC(C)(C)OCCOc1ccc2ncccc2c1,-3,-9
COC(=O)c1cn([C@@H]2C[C@@H](C(=O)NCCc3cccc(Cl)c3)N(C3CCCC3)C2)nn1,-3,-7
O=c1c2nccnc2ncn1CC(c1ccccc1)N1CCCCC1 (configuration not stated),17,8
CCC1CN(CCNC(=O)CCCc2cccs2)Cc2cc(OC)ccc2O1 (configuration not stated),16,5
Cc1cccn2cc(CNC(=O)Cc3ccc(Cl)cc3)nc12,0,1
O=c1oc2ccc(Cl)cc2cc1-c1nnc(Nc2ccc(Cl)cc2Cl)s1,-7,-11
O=C(NCCc1nc(-c2ccccn2)no1)c1ccccc1N1CCOCC1,0,-2
N#CC1=C(N=Cc2cc(Cl)cc(Cl)c2O)CCC1,12,10
Cc1cc(C(=O)N2CCN(c3cccc(Cl)c3)CC2)n2nc(-c3ccccc3)cc2n1,2,6
CCCc1nnc2sc(Cc3ccccc3)nn12,0,0
COC(=O)c1c(C)c(C(=O)CN(CC2CCCO2)C(=O)Nc2c(Cl)cccc2Cl)c(C)n1C (configuration not stated),11,17
CCOC(=O)CSc1nnc(Nc2ccc(C)cc2)s1,2,-2
COc1cc(C(=O)NCc2ccccc2CN(C)C)cc(Cl)c1OC,3,-2
Cc1ccnc(SCc2cc(=O)c(OC(=O)Cc3ccc(Cl)cc3)co2)n1,-13,-12
COc1ccccc1N1CCN(S(=O)(=O)c2ccccc2)C(C)C1=O (configuration not stated),16,17
CC1CCN(c2ccc(NC(=O)CC(C)(C)C)cc2C(=O)NCc2ccc(F)cc2)CC1,-10,-2
Cc1csc(SCc2nc(C(C)(C)NC(=O)OC(C)(C)C)no2)n1,5,5
CCC(O)c1nc2ccccc2n1Cc1ccc(F)cc1 (configuration not stated),-1,8
CSC1=NC2(CCCCC2)C2=C(CCCC2)N1,3,2
COc1cccc(CNCc2nnc3n2CCCC3)c1OC,2,1
CCN(CC)C(=O)Oc1ccc2c(ccn2Cc2ccc(Cl)cc2)c1NC(=O)CCC(=O)OC,0,-1
CCC(=O)NNC(=O)CC12CC3CC(CC(C3)C1)C2,6,7
O=C1NC(=Nc2cccnc2)S/C1=C/c1ccc(O)cc1,1,0
CC(C)OC(=O)Oc1ccc2oc(=O)sc2c1,-3,-4
Cc1cn2ccccc2c1P(=Nc1ccccc1)(N1CCOCC1)N1CCOCC1,-7,-11
O=C(O)CCN1C(=O)/C(=C/c2ccc(O)cc2)SC1=S,92*,77*
CCC(NC(=O)c1cc(S(=O)(=O)N(C)C)ccc1Cl)C12CC3CC(CC(C3)C1)C2 (configuration not stated),0,-1
CC1Cn2c(nnc2-c2cc3ccccc3cc2O)S1 (configuration not stated),-2,-8
COc1cccc(NC(=O)N2CCN(c3nc(C(C)C)nc4sc5c(c34)CCC(C)C5)CC2)c1 (configuration not stated),-8,6
COCCN(CC1CCCO1)C(=O)c1cccc(-c2ccc(O)cc2)c1 (configuration not stated),6,2
COc1cccc(C2CCN2CC(=O)Nc2ccc(N(C)C(C)=O)cc2)c1 (configuration not stated),-10,-11
CCCCCOC(=O)CCSc1n[nH]c(=O)[nH]c1=O,5,2
O=C(NS(=O)(=O)c1cccc(C(F)(F)F)c1)c1cscn1,13,7
CC(=O)Nc1cc(-c2ccc(N(C)C)cc2)cn2c(-c3ccc(F)cc3)cnc12,5,0
Cc1ccc2c(c1)Oc1ncccc1C(=O)N2C,5,9
C=CCC(O)(CC=C)c1ccc(CN(CCOC)Cc2ccco2)o1,-1,4
Cc1ccc(CN(CCc2ccccc2)C(=O)CN(CCN2CCOCC2)Cc2c(F)cccc2Cl)o1,19,22
CN1CCC2(CC1)CCN(S(=O)(=O)c1cc3ccccc3o1)C2,13,-2
Cc1ccc(N2C(=O)CSC2c2ccc(NS(=O)(=O)c3ccc4ccccc4c3)cc2)cc1C (configuration not stated),-3,-3
O=C(O)Cn1cnc2sc(-c3ccccc3)cc2c1=O,-1,-2
COc1ccc(C(=O)NC2CCC(NC(=O)[C@H]3CCCN3C(=O)C3CCC3)CC2)cc1 (some centres not stated),-4,-2
NS(=O)(=O)N1CCCC1c1ccc(Cl)c(Cl)c1 (configuration not stated),2&3,4&1
COc1ccc(N=C2S/C(=C\c3ccc(O)cc3)C(=O)N2c2ccc(OC)cc2)cc1,-6,-8
C=C(NN=c1sc2ccccc2n1C)c1cc2ccccc2o1,4,-3
O=C1N(c2ccccc2)C(c2ccco2)C1(F)F (configuration not stated),13,10
CCc1nc2c(OCC(N)=O)cccn2c1N(C)C(=O)COc1ccccc1,-20,-25
COc1cccc(Cn2cccc2CN(Cc2ccccc2)C(=O)CN(CC(C)C)C(=O)c2cccc([N+](=O)[O-])c2)c1,1,10
CCN1CCN(Cc2ccc(O)c(C)c2)C(C)C1=O (configuration not stated),6,5
COc1cc(NC(=O)c2ccco2)c(C(=O)OCC(=O)Nc2ccc(C(C)=O)cc2)cc1OC,-1,-2
c1ccc2[nH]c(-c3ccc(-n4ccnc4C4CCOC4)cc3)nc2c1 (configuration not stated),17,11

# (further entries)
SMILES,NPYLR7 agonist,NPYLR7 agonist max-min
Cc1nccn1CC1(CNC(=O)c2ccnc(N)c2)CC1,8,8
Cc1ccc(C(=O)CSc2nnc(-c3ccco3)o2)o1,-2,-4
COc1ccc2nc(N(CCN(C)C)C(=O)CCS(=O)(=O)c3ccc(Cl)cc3)sc2c1,3,0
CCCCN(C)S(=O)(=O)N1CCN(c2nc(N)ns2)CC1,1,0
CCOC(=O)c1cc(-c2cccc(NC(=O)Cc3ccc(OC)cc3)c2)n(-c2cccc(F)c2)n1,21,11
Cc1cnn(CCCn2ccnc2-c2cccc3nonc23)c1,3,-6
CCCCNC(=O)C1(C)CCN1Cc1csc(C)n1 (configuration not stated),3,0
C=CCn1c(C2CC(=O)N(CC(C)C)C2)nc2ccccc21 (configuration not stated),2,2
Cc1cccc(NC(=O)CCCn2nc(-c3ccco3)ccc2=O)c1C,2,3
Cc1ccccc1C(=O)NC(C(=O)N1CCCC1)C1CCN(C(=O)C2CCCC2)CC1 (configuration not stated),10,16
Cc1cc(C)n(-c2ccc(C(=O)N3CCNCC3C(=O)NC3CC3)cc2)n1 (configuration not stated),-6,-5
